RGS16-Gao HTS – RGS16-Galphao interaction regulator (human) | bead-based flow cytometry RGS16-Galphao binding, fluorescence; actives lie on both sides | O15492+P09471 | AID 1441 | binding response (% of control), % at 10 µM | hit rate 0.38% among 220,000;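 active = below 25% or above 175%, edge rows of some plates excepted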;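 note: Galphao activated by GDP with aluminum fluoride before binding; 100% = wells without compound and 0% = beads without RGS; some results beyond the cut were filed as inactive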
HSV replic up – increases HSV replication in cells. hit rate 0.005% among 220,000. HSV replication augmentation in cells, fold increase. maximum fold increase. AID 1956;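 active = peak rise of 1.5-fold or more in the series; inconclusive = self-fluorescent or not available for retest; tested in PC3 cells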;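 note: first round at 10 µM; read as green reporter fluorescence; hits show the peak of a series up to 25 µM; 1 = signal of infected wells without compound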
GALR2 agonist – activates the human galanin receptor 2; O43603; GALR2-expressing cells, agonist activation read-out; activation, %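 (tested at 5 µM)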; hit rate 0.48% among 140,000;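 active = above mean plus 3 SD of all compounds, about 5% in these data, not always enough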;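 note: 0% = vehicle buffer wells and 100% = reference agonist at full effect; tested in CHO reporter cells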
Insulin prom inh – TRM-6 insulin promoter activity inhibition | inhibition, % at 2 µM | hit rate 0.9% among 130,000 | TRM-6 cells (human fetal islet line), insulin promoter-eGFP reporter, imaging; reporter expression induced with tamoxifen;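 active = inhibition above the mean plus 3 SD, with well images judged a real hit on visual review, cut at about 60% in these data, passing the limit was not always enough; inconclusive = inhibition over the cutoff but images rejected on review; inactive = inhibition not above the cutoff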
PKD1 inh – PKD1 (human) kinase inhibition | inhibition, %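 (about 10 µM by stock and volumes)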 | Q15139 | AID 797 | PKD1 kinase fluorescence polarization assay | hit rate 0.056% among 200,000;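 active = inhibition of 50% or more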;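 note: controls were vehicle for no effect and a reference inhibitor for full effect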
Target sequence (Q15139 whole entry, looked up): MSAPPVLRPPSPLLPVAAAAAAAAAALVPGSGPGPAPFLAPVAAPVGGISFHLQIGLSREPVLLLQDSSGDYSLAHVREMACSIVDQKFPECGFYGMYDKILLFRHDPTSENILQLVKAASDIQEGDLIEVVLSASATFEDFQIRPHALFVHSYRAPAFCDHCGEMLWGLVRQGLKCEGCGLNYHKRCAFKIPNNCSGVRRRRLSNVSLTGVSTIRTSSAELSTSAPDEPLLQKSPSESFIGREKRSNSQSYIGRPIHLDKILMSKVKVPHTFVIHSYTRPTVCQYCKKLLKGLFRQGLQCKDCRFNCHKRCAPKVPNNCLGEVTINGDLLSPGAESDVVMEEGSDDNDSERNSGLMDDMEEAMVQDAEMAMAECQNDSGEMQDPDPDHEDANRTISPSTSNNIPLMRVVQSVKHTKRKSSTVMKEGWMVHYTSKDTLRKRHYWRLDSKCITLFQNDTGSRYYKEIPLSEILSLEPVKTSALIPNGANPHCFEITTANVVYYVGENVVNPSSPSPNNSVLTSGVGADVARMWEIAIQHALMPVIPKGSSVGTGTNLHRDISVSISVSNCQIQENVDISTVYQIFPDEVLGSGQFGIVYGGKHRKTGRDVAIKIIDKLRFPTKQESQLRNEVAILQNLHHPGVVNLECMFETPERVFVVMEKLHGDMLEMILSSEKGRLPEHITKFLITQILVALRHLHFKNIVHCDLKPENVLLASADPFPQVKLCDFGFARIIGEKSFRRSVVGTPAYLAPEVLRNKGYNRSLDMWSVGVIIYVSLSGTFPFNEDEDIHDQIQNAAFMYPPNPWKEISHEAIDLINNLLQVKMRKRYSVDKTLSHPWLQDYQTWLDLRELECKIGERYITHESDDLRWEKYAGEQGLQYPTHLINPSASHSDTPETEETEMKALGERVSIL
Insulin prom inh cell count – second read-out of Insulin prom inh, no call of its own (marks repeat the call); normalized cell count, %; measured here: cell count, toxicity; reference of the scale not given here;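 cells exposed to compound for 48 h; stained nuclei by imaging scaled within each plate; lower means fewer cells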
HSV replic up primary fold – also measured in HSV replic up; calls as there; fold increase; compound at 10 µM; measured here: primary screen fold increase 10 uM; tested in PC3 cells;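 GFP signal in the first replicate; 1 = infected wells without compound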
An asterisk follows results filed as active; i = inactive; ? = inconclusive; · = not tested or not shown.

SMILES	RGS16-Gao HTS	HSV replic up	HSV replic up primary fold	GALR2 agonist	Insulin prom inh	Insulin prom inh cell count	PKD1 inh
Nc1ccc2nn(-c3ccccc3)nc2c1	79	i	1.1	·	·	·	-9
O=c1[nH]c2ccccc2c(=O)n1CCCO	99	i	0.92	-2.0	23	144	-1
Cc1cc(C)nc(SCc2cnc(C)nc2N)n1	102	i	0.88	·	15	120	-3
O=C(CSc1nnnn1-c1ccccc1)c1cc2ccccc2oc1=O	98	i	0.97	0.2	·	·	-12
COC(=O)NCC(c1ccco1)N1CCN(c2ccccc2)CC1 (configuration not stated)	99	i	0.95	·	-22	80	1
COC(=O)c1cc(NC(=O)CN(c2ccc(OC)cc2)S(=O)(=O)c2ccc(F)cc2)ccc1Cl	·	i	0.88	-0.7	·	·	-2
CCN(CC)C(=O)CSc1nnc([C@@H](N)C(C)C)o1	100	i	0.88	·	·	·	·
CCOC(=O)N1CCN(c2c(NCCCN(CC)c3cccc(C)c3)c(=O)c2=O)CC1	105	i	1	1.4	·	·	-1
Cn1c(=O)cc(SCC(=O)Nc2ccc3c(c2)OCO3)c2ccccc21	104	i	0.78	-3.3	·	·	-3
Cc1ccccc1N(C(=O)c1csnn1)C(C(=O)NC(C)(C)C)c1ccncc1 (configuration not stated)	104	i	0.91	·	·	·	-6
N=c1c2c3c(sc2nc2n1CCC2)CCCC3	100	i	0.98	-0.5	3	74	-1
O=C(Nc1nnc(-c2ccccc2)o1)c1cccc(N2C(=O)CCC2=O)c1	109	i	1.1	-1.2	-36	60	2
Nc1nc(N2CCCCC2)nc(N2CCCCC2)n1	107	i	1	-1.4	18	121	-5
NC(=O)c1ccccc1NC(=O)Nc1cccc2ccccc12	100	i	0.89	·	-79	155	-1
CC(C)C(=O)Nc1ccc(-c2ccc3nncn3n2)cc1	98	i	0.88	·	11	130	9
Cc1nc(=O)c(-c2ccccc2)c(C)n1CCCO	89	·	·	-2.1	-14	101	-7
CCc1ccc(-c2ccc(SCc3ccccn3)nn2)cc1	97	i	0.92	·	-23	124	5
Nc1c(C(=O)O)sc2nc(-c3ccccc3)c3c(c12)CCCC3	102	i	1.1	-2.0	10	105	5
CC(C)C(O)(C#CCN1CCCCCC1)c1ccccc1 (configuration not stated)	102	i	0.84	·	21	96	3
Cc1ccccc1NC(=S)NC(=O)CCc1ccccc1	107	i	0.92	-3.3	-74	143	-3
Cc1ccccc1Cn1ccc(NC(=O)c2cnn3cccnc23)n1	106	i	0.88	-1.9	-334	55	-3
Cc1cc(N/N=C/c2ccc(O)cc2)nc(NS(=O)(=O)c2ccccc2)n1	106	i	0.99	-2.7	·	·	-2
O=C1C(c2ccc(F)cc2)N(Cc2ccc3c(c2)OCO3)C(=O)CN1C1CCCCC1 (configuration not stated)	101	i	1	-0.7	·	·	-1
Fc1ccccc1N1CCN(Cc2cccnc2)CC1	101	i	1	-0.3	21	150	-6
C=C(C)CSc1nnc(-c2ccccc2)n1N	99	·	·	-2.0	39	41	-7
COc1ccc(CC(=O)N/N=C/c2ccc(-c3cccc(C(=O)O)c3)o2)cc1OC	100	i	1	·	·	·	·
Cn1c(CO)c(-c2ccccc2)c2cc([N+](=O)[O-])ccc21	111	i	0.88	-3.0	58	63	-2
O=C(COc1ccccc1/C=C1\SC(=O)NC1=O)Nc1ccc(F)cc1	98	i	1.1	·	-11	81	6
O=S1(=O)C=CC(Sc2nc3ccccc3[nH]2)C1 (configuration not stated)	99	i	0.92	-2.2	23	99	1
CC(=O)Nc1ccc(NC(=O)C(=O)N/N=C/c2cccnc2)cc1	86	i	0.98	·	·	·	·
O=C(CCC1N=C2c3ccccc3N=C(SCc3cccc(Cl)c3)N2C1=O)NCc1ccco1 (configuration not stated)	96	i	0.88	0.8	-33	71	-2
Cc1ccc(S(=O)(=O)N2CCC(C(=O)NNS(=O)(=O)c3ccc(Cl)cc3)CC2)cc1	107	i	0.92	0.7	54	104	-4
CC1Cc2ccccc2N1C(=O)c1cccnc1 (configuration not stated)	63	i	0.95	-2.1	0	124	-9
Cc1ccccc1OCCn1c(=O)sc2ccccc21	104	i	0.96	-3.9	55	123	10
O=Nc1ccc(NOC(=O)c2ccc(Br)cc2)cc1	98	i	0.93	-1.2	-37	131	12
Nc1ccc(N2CCCCC2)c(S(=O)(=O)Nc2ccc(Cl)cc2)c1	103	i	0.97	·	·	·	·
CCCCCc1ccc(-c2nnc(N)s2)cc1	105	i	0.94	·	-12	149	0
COc1ccc(C2=NN(C(N)=S)C(c3ccccc3)C2)cc1 (configuration not stated)	98	i	0.96	·	·	·	7
CCc1nn(CC(=O)Nc2ccc(Br)c(C)c2)c(=N)s1	98	i	0.92	·	-162	71	9
COC(=O)c1c(NC(=O)c2ccccc2)sc2c1CC(C)(C)NC2(C)C	101	·	·	·	·	·	2

Five entries from above in another layout:
SMILES | RGS16-Gao HTS | HSV replic up | HSV replic up primary fold | GALR2 agonist | Insulin prom inh | Insulin prom inh cell count | PKD1 inh
O=Nc1ccc(NOC(=O)c2ccc(Br)cc2)cc1 | 98 | i | 0.93 | -1.2 | -37 | 131 | 12
O=C(COc1ccccc1/C=C1\SC(=O)NC1=O)Nc1ccc(F)cc1 | 98 | i | 1.1 | · | -11 | 81 | 6
COc1ccc(CC(=O)N/N=C/c2ccc(-c3cccc(C(=O)O)c3)o2)cc1OC | 100 | i | 1 | · | · | · | ·
Nc1ccc(N2CCCCC2)c(S(=O)(=O)Nc2ccc(Cl)cc2)c1 | 103 | i | 0.97 | · | · | · | ·
CC1Cc2ccccc2N1C(=O)c1cccnc1 (configuration not stated) | 63 | i | 0.95 | -2.1 | 0 | 124 | -9

(more compounds)
SMILES	RGS16-Gao HTS	HSV replic up	HSV replic up primary fold	GALR2 agonist	Insulin prom inh	Insulin prom inh cell count	PKD1 inh
Cc1nnc(SCc2ccc(CC(=O)O)cc2)o1	103	i	0.86	-1.2	-57	207	-4
Cc1ccc(Cc2nnc3n(-c4ccccc4)nc(C(=O)c4ccccc4)n3c2=O)cc1	122	i	0.97	1.3	0	97	2
O=C(NCc1ccccc1Cl)c1ccc[nH]1	104	i	0.98	·	-49	87	1
CCn1c(O)c(N=NC(=O)C(O)c2ccccc2)c2ccccc21 (configuration not stated)	101	i	0.94	·	·	·	·
CCOc1ccccc1/C=N/NC(=O)Cc1csc(Nc2cccc(C(F)(F)F)c2)n1	108	?	·	-1.1	·	·	-6
COc1ccc(-c2cc(-c3ccccc3O)[nH]n2)cc1OC	95	i	0.75	0.4	·	·	3
C/C(N)=C(/C#N)C(=O)COC(=O)c1cc(-c2cccc3ccccc23)nc2ccccc12	99	i	1.1	0.1	·	·	-6
CCOC(=O)c1ccc(NC(=O)C(=O)NCc2ccco2)cc1	105	i	1.1	·	·	·	8
O=C(O)CC(C(=O)Nc1ccc(Cl)c(Cl)c1)C1CCCO1 (configuration not stated)	109	·	·	-2.0	-47	60	-4
O=C1NC2(CCN(Cc3ccccc3)CC2)Oc2ccccc21	96	i	1	·	·	·	11
Cc1ccc(-n2ncc3c(NCCCN4CCOCC4)ncnc32)c(C)c1	104	i	0.96	-3.7	·	·	-5
CCOc1ccc(CCNC(=O)c2cc3c(C)nccc3[nH]c2=O)cc1OCC	103	i	0.97	·	·	·	1
O=C1N=C(c2ccccc2)C(c2ccccc2)N1 (configuration not stated)	128	i	0.8	-1.7	·	·	2
COc1cc(/C=N/NC(N)=O)ccc1OC(=O)c1ccc(C)cc1	101	i	0.89	-2.1	15	129	-5
CC(=O)Nc1cccc([N+](=O)[O-])c1	134	i	1	·	·	·	-1
O=C(O)c1ccc(CNCc2ccccc2Cl)cc1	99	i	1	-2.7	-17	85	0
Cc1cc2nc(-c3ccc(NC(=O)c4cccnc4)cc3)oc2cc1C	109	i	0.83	1.5	4	104	12
Cc1c(NC(=O)c2ccc(C(C)(C)C)cc2)cccc1[N+](=O)[O-]	78	i	0.95	-2.6	19	42	-6
CCN(CC)C(=O)NC1CC2CCCC(C1)N2Cc1ccccc1 (configuration not stated)	72	i	0.98	-3.4	·	·	-5
CCn1nc(C(=O)NC2=NCCS2)c2ccccc2c1=O	101	i	1	-2.9	·	·	-5
C=CCNC(=O)c1onc(CSc2cc(C)cc(C)c2)c1C(=O)O	99	i	0.84	-0.9	38	92	-3
Cc1cc(C)cc(NC(=O)C(=O)NCC2CCCO2)c1 (configuration not stated)	101	i	0.88	·	·	·	2
O=C(C1CCCCN1S(=O)(=O)c1ccc(F)cc1)N1CCN(c2ccccc2F)CC1 (configuration not stated)	101	i	0.97	-1.0	·	·	-14
O=C(c1ccc2c(c1)OCO2)C1CCCN(Cc2ccc3nsnc3c2)C1 (configuration not stated)	108	i	0.93	·	·	·	0
COc1ccc(-c2[nH]ncc2CNC(C)CCn2cccn2)c(F)c1 (configuration not stated)	105	i	0.89	·	·	·	9
COc1ccc2[nH]c(=O)c(CN(CCCN(C)C)C(=O)Nc3ccc(F)cc3)cc2c1	97	i	0.9	-0.3	-82	132	-9
COc1ccc(NC(=O)CCSc2nnc(C)s2)cc1	108	i	0.99	-0.2	-71	86	-4
O=C(CSCc1ccccc1)Nc1cccc(F)c1	102	i	1	-0.5	·	·	-8
O=C(CSc1ccc(-c2ccco2)nn1)NCc1ccccc1Cl	102	i	0.84	-3.0	-81	76	-4
CCOCCCNC(=O)CN(c1cc([N+](=O)[O-])ccc1OC)S(C)(=O)=O	88	i	1.1	·	·	·	7
C=CCOC(=O)COc1ccc2c(C)c(C)c(=O)oc2c1C	97	i	1	-0.1	24	108	0
Cc1cc(Nc2ccc3c(c2)OCCO3)c2cc(Cl)ccc2n1	110	i	0.59	-0.4	·	·	-12
COc1ccccc1N1CCN(C(=O)/C=C/c2ccc3c(c2)OCO3)CC1	104	i	0.96	-2.1	·	·	-1
CC(=O)Nc1c(Br)cc(N2C(=O)CCC2=O)cc1Br	99	i	0.95	2.2	-30	96	-10
O=C(CCc1ccccc1)OCC(=O)c1ccc(Br)cc1	99	i	0.91	-1.2	-21	92	5
O=S(=O)(c1ccc(F)cc1)N1CCC(N2CCCCCC2)CC1	97	i	0.82	-0.9	26	39	1
COc1ccc(CCNc2ccncn2)cc1	102	i	0.66	-2.6	-51	67	3
CCOC(=O)C1=C(C)NC(=O)NC1c1ccco1 (configuration not stated)	106	i	1	-0.8	12	108	0
CCCCSc1nnc2n(CCc3ccccc3)c(=O)c3c4c(sc3n12)COC(C)(C)C4	103	i	0.94	0.8	-471	42	-3
Cc1ccccc1NC(=O)N1c2ccccc2CC1C (configuration not stated)	85	i	0.95	·	-13	86	-2

Shown with two lines to a compound: 2 of the compounds above
Order of results: RGS16-Gao HTS, HSV replic up, HSV replic up primary fold, GALR2 agonist, Insulin prom inh, Insulin prom inh cell count, PKD1 inh
C=CCNC(=O)c1onc(CSc2cc(C)cc(C)c2)c1C(=O)O
  99, i, 0.84, -0.9, 38, 92, -3
Cc1ccccc1NC(=O)N1c2ccccc2CC1C (configuration not stated)
  85, i, 0.95, ·, -13, 86, -2

(next part)
SMILES	RGS16-Gao HTS	HSV replic up	HSV replic up primary fold	GALR2 agonist	Insulin prom inh	Insulin prom inh cell count	PKD1 inh
O=C1CN(C(=O)COC(=O)CCSc2ccccc2Cl)c2ccccc2N1	99	·	·	-3.6	-42	74	8
CC(NC(=O)COC(=O)C1CCN(S(=O)(=O)c2ccccc2C(F)(F)F)CC1)c1ccccc1 (configuration not stated)	327	i	0.82	-0.1	31	102	8
Cc1ccc(S(=O)(=O)N/N=C/c2ccc(C(=O)O)cc2)cc1	100	i	0.87	-2.9	7	52	-1
COC(=O)CCC(=O)OC1(C)C(=O)C2=CN(C3CCCC3)C(c3ccc(OC)cc3)=CC2=C(Br)C1=O (configuration not stated)	91	i	0.84	·	·	·	·
COc1ccc(C(=O)Nc2cc([N+](=O)[O-])ccc2N2CCCC2)cc1	100	i	0.93	·	18	103	-6
CCOCCCNC(=O)C(NC(=O)c1ccccc1O)c1ccc(C)cc1 (configuration not stated)	113	i	1.1	·	·	·	-9
Cc1ccc2nc(NC(=O)CNS(=O)(=O)c3ccc(Br)s3)sc2c1	76	i	0.93	-4.5	·	·	-2
O=C(N/N=C/c1cc([N+](=O)[O-])ccc1O)C1C2CCCCC21 (configuration not stated)	108	i	1.1	·	·	·	-8
COc1ccc(C(=O)/C=C(/C)N(C)C)cc1	99	i	0.93	-2.1	-7	158	1
CCOc1ccc(/C=N/NC(=O)CN2CCSCC2)cc1	113	i	0.84	-1.5	-82	67	-5
O=C(/C=C/Nc1ccc(S(=O)(=O)Nc2ncccn2)cc1)c1cccs1	103	i	1.1	·	·	·	·
O=C(Nc1cccc(-c2cn3cccnc3n2)c1)c1ccc2c(c1)OCO2	101	i	0.76	-2.1	-18	70	-16
CCn1nc(CC(=O)Nc2ccc(-n3cnnn3)c(C)c2)c2ccccc2c1=O	100	i	0.7	-1.1	-7	74	9

Screening data (PubChem BioAssay)
